Assay outcomes as filed in PubChem.
EPAC1 ag val – validation of human EPAC1 agonists. O95398. EPAC1 Rap1b BODIPY-GDP exchange, fluorescence. Potency, µM, for the others: max response, positive = active, usual class: activators. 16,000 compounds, 1% hits. AID 1645883; active = well fitted activation curve with a large enough effect; inconclusive = small, poorly fitted or top-dose-only effect; inactive = no such curve, though single readings can be large or run the other way;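 note: nearly all actives have a fitted effect of over 70% in size; series mostly up to about 76 or 150 µM; scaled to a cAMP control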
Target sequence (O95398 whole entry, looked up): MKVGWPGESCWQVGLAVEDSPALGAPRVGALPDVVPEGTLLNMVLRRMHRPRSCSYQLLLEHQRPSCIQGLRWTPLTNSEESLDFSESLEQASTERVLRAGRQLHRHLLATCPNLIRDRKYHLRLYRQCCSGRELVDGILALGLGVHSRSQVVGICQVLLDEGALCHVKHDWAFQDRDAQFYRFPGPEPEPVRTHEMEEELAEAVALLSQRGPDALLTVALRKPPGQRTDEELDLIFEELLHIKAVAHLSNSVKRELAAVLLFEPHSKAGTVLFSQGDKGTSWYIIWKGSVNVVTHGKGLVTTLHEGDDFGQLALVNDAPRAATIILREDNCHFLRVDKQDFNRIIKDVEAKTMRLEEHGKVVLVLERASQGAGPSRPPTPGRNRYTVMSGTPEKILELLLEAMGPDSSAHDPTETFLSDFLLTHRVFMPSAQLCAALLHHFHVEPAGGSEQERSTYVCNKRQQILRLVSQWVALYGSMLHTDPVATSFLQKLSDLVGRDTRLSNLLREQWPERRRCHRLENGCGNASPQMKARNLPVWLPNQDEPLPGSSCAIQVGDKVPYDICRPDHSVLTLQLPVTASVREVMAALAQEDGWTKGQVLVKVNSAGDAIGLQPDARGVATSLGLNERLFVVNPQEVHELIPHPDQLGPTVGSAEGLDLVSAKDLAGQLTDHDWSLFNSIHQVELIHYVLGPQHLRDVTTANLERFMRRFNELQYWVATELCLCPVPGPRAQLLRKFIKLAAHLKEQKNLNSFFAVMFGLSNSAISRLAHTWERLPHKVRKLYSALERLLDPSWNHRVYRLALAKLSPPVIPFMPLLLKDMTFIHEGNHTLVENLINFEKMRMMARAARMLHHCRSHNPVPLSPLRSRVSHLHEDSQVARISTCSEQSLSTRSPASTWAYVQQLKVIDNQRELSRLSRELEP
Numbers without * were called inactive; ? = inconclusive; & = joins results of further samples; ! = a repeat was not active; [ ] = dose if it differs, or a comment. % is set by controls: 0 for no effect and ±100 for the full control effect; potency is the fitted concentration of half-maximal effect.

Start of the listing, in advance, 2 compounds:
SMILES | EPAC1 ag val
CO/N=C(/C(=O)N[C@@H]1C(=O)N2C(C(=O)O)=C(Cn3nnc(C)n3)CS[C@H]12)c1csc(N)n1 | ?
CC(=O)Oc1ccc(C(=C2CCCCC2)c2ccc(OC(C)=O)cc2)cc1 | -11%

This part in full, from the start:
SMILES | EPAC1 ag val
CO/N=C(/C(=O)N[C@@H]1C(=O)N2C(C(=O)O)=C(Cn3nnc(C)n3)CS[C@H]12)c1csc(N)n1 | ?
CC(=O)Oc1ccc(C(=C2CCCCC2)c2ccc(OC(C)=O)cc2)cc1 | -11%
CCCOC(=O)c1ccc(N)cc1 | -4%
COc1cc2ncnc(Nc3cccc(Cl)c3)c2cc1OC | 3%&-2%&-8%
C[C@H](O)CN(C)C | 1%
Oc1ccc(/C=C\c2cc(O)cc(O)c2)cc1 | -17%
CN1CCCN=C1COC(=O)C(O)(c1ccccc1)C1CCCCC1 (stereo not drawn) | -17%
CC1Cc2ccccc2N1NC(=O)c1ccc(Cl)c(S(N)(=O)=O)c1 (stereo not drawn) | 20%&-15%
CC1(C)C2CC[C@]3(C)[C@H](C(=O)C=C4[C@@H]5C[C@@](C)(C(=O)O)CC[C@]5(C)CC[C@]43C)[C@@]2(C)CC[C@@H]1O[C@H]1O[C@H](C(=O)O)[C@@H](O)[C@H](O)[C@H]1O[C@@H]1O[C@H](C(=O)O)[C@@H](O)[C@H](O)[C@H]1O (stereo partly drawn) | 4%
N[C@@H](Cc1c[nH]c2ccc(O)cc12)C(=O)O | 2%&-3%
N#Cc1ccc(C(c2ccc(C#N)cc2)n2cncn2)cc1 | -17%
O=C(O)CCC(=O)c1ccc(-c2ccccc2)cc1 | -15%&17%
COc1ccc(-c2cc(=O)c3c(O)cc(O[C@@H]4O[C@H](CO[C@@H]5O[C@@H](C)[C@H](O)[C@@H](O)[C@H]5O)[C@@H](O)[C@H](O)[C@H]4O)cc3o2)cc1O | -28%
CC[C@H](NC(C)C)[C@H](O)c1ccc(O)c2[nH]c(=O)ccc12 | 22%&3%
CC1(C)[C@H](O[C@H]2O[C@H](C(=O)O)[C@@H](O)[C@H](O)[C@H]2O[C@@H]2O[C@H](C(=O)O)[C@@H](O)[C@H](O)[C@H]2O)CC[C@@]2(C)[C@H]1CC[C@]1(C)[C@H]2C(=O)C=C2[C@H]3C[C@@](C)(C(=O)O)CC[C@]3(C)CC[C@]21C | 5%

Six records drawn at random from the list so far, as already listed:
SMILES | EPAC1 ag val
O=C(O)CCC(=O)c1ccc(-c2ccccc2)cc1 | -15%&17%
CCCOC(=O)c1ccc(N)cc1 | -4%
COc1cc2ncnc(Nc3cccc(Cl)c3)c2cc1OC | 3%&-2%&-8%
Oc1ccc(/C=C\c2cc(O)cc(O)c2)cc1 | -17%
COc1ccc(-c2cc(=O)c3c(O)cc(O[C@@H]4O[C@H](CO[C@@H]5O[C@@H](C)[C@H](O)[C@@H](O)[C@H]5O)[C@@H](O)[C@H](O)[C@H]4O)cc3o2)cc1O | -28%
N[C@@H](Cc1c[nH]c2ccc(O)cc12)C(=O)O | 2%&-3%

The listing continues:
SMILES | EPAC1 ag val
CCCCNc1ccc(C(=O)OCCN(C)C)cc1 | ?
O=c1cc(O)c(Cl)c[nH]1 | -1%
c1cnc2cc3c(cc2n1)[C@@H]1CNC[C@H]3C1 | 10%
CCOC(=O)[C@H](CCc1ccccc1)N[C@@H](C)C(=O)N1Cc2ccccc2C[C@H]1C(=O)O | 3%
C/C=C/C(=O)N(CC)c1ccccc1C | -3%&-4%
COc1c(O)cc2c(c1O)C1OC(CO)C(O)[C@H](O)[C@H]1OC2=O (stereo partly drawn) | 23%
NC(=O)C1(N2CCCCC2)CCN(CCCC(=O)c2ccc(F)cc2)CC1 | 0%
CCN(CC)CCOC(=O)c1ccc(N)cc1 | 7%&16%&16%
COc1ccc(C2CNC(=O)C2)cc1OC1CCCC1 (stereo not drawn) | -1%&-22%&-11%
Cc1c(C(=O)O)c(O)cc2c1C(=O)c1c(O)c([C@@H]3O[C@H](CO)[C@@H](O)[C@H](O)[C@H]3O)c(O)c(O)c1C2=O | -30%
CCCCCCCCCCCCCCC[C@H](O)[C@@H](N)CO | -19%&-11%
COc1cc(N)c(Cl)cc1C(=O)N[C@H]1CCN(CCCOc2ccc(F)cc2)C[C@@H]1OC | -3%
CCc1ccc(CCOc2ccc(CC3SC(=O)NC3=O)cc2)nc1 (stereo not drawn) | -19%&28%
CC12CC3CC(C)(C1)CC(N)(C3)C2 | 1%&5%&-3%
Oc1cc2c(cc1O)[C@H]1c3ccc(O)c(O)c3OC[C@@]1(O)C2 | 2%

Looked up above:
EPAC1 ag val with O=c1cc(O)c(Cl)c[nH]1 → -1%
EPAC1 ag val with CCN(CC)CCOC(=O)c1ccc(N)cc1 → 7%&16%&16%

The list continues:
SMILES | EPAC1 ag val
C=CCn1c(=O)n([C@@H]2O[C@H](CO)[C@@H](O)[C@H]2O)c2nc(N)[nH]c(=O)c21 | -48%[inhibitor]
CCN(CC)CCNC(C(=O)OCCC(C)C)c1ccccc1 (stereo not drawn) | -26%
Cn1cc(S(C)=O)c(=O)c2ccc(F)cc21 (stereo not drawn) | 14%
COc1ccccc1OCC1CNC(=O)O1 (stereo not drawn) | -9%
Cc1ccc(=O)n(-c2ccccc2)c1 | 6%&5%&4%
O=c1oc2c(O)c(O)cc3c(=O)oc4c(O)c(O)cc1c4c23 | 79µM*!
CCn1cc(C(=O)O)c(=O)c2cnc(N3CCNCC3)nc21 | 12%&8%
CCCCCC(=O)O[C@]1(C(C)=O)CC[C@H]2[C@@H]3CCC4=CC(=O)CC[C@]4(C)[C@H]3CC[C@@]21C | -62%[inhibitor]
NC(N)=O | 1%&-1%
CC(C)COC(=O)c1ccc(N)cc1 | -33%[inhibitor]
CCOC(=O)[C@H](CCc1ccccc1)N[C@H]1CS[C@H](c2cccs2)CN(CC(=O)O)C1=O | 2%
CC1CC2C3CCC4=CC(=O)C=C[C@]4(C)[C@@]3(Cl)C(O)C[C@]2(C)C1(OC(=O)c1ccco1)C(=O)CCl (stereo partly drawn) | -20%
CCNC(=O)NCc1cccc(Cl)c1 | -2%
CC(=O)CCCCn1c(=O)c2c(ncn2C)n(C)c1=O | -6%&-6%&27%
COc1nccc(-c2c(-c3ccc(F)cc3)ncn2C2CCC(O)CC2)n1 (stereo not drawn) | 3%

Ordered by value in EPAC1 ag val (falling): some entries from above.
SMILES | EPAC1 ag val
Cn1cc(S(C)=O)c(=O)c2ccc(F)cc21 (stereo not drawn) | 14%
COc1nccc(-c2c(-c3ccc(F)cc3)ncn2C2CCC(O)CC2)n1 (stereo not drawn) | 3%
CCOC(=O)[C@H](CCc1ccccc1)N[C@H]1CS[C@H](c2cccs2)CN(CC(=O)O)C1=O | 2%
CC1CC2C3CCC4=CC(=O)C=C[C@]4(C)[C@@]3(Cl)C(O)C[C@]2(C)C1(OC(=O)c1ccco1)C(=O)CCl (stereo partly drawn) | -20%

(more compounds)
SMILES | EPAC1 ag val
NC1CCN(c2nc3c(cc2F)c(=O)c(C(=O)O)cn3-c2ccc(F)cc2F)C1 (stereo not drawn) | -8%
O=C(O)c1cccnc1Nc1cccc(C(F)(F)F)c1 | -10%&-32%&-21%&-21%
NOCC(=O)O | 1%
CCCCNc1ccc(C(=O)OCCOCCOCCOCCOCCOCCOCCOCCOCCOC)cc1 | -21%
Cc1c(Cn2ccnc2)c2ccccc2n1CCC(=O)O | -30%[inhibitor]
COc1ccc(-c2cc(=S)ss2)cc1 | 18%
c1cnc2cc3c(cc2n1)C1CNCC3C1 | -1%
C=C1c2cccc(O)c2C(O)=C2C(=O)[C@]3(O)C(O)=C(C(N)=O)C(=O)C(N(C)C)C3C(O)C12 (stereo partly drawn) | 12%
CO/N=C(/C(=O)N[C@@H]1C(=O)N2C(C(=O)[O-])=C(C[n+]3ccn4ncccc43)CS[C@H]12)c1nsc(N)n1 | -3%&-1%
CN(C)CCCC1(c2ccc(F)cc2)OCc2cc(C#N)ccc21 (stereo not drawn) | 4%
CCCCC(=O)O[C@@]1(C(=O)CO)C(C)CC2C3CCC4=CC(=O)C=C[C@@]4(C)[C@]3(F)C(O)C[C@]21C (stereo partly drawn) | -13%
CCOC(N)=O | -20%
CC(=O)Nc1ccc(CC(=O)O)cc1 | ?
C[N+]1(C)CCC(=C(c2ccccc2)c2ccccc2)CC1 | -27%&-33%
C1COC(NC(C2CC2)C2CC2)=N1 | -3%&5%&-3%

SMILES | EPAC1 ag val
N[C@H]1CN(c2c(F)cc3c(=O)c(C(=O)O)cn(C4C[C@@H]4F)c3c2Cl)CC12CC2 (stereo partly drawn) | 13%
CC(C(=O)O)c1ccc2c(c1)CC(=O)c1ccccc1S2 (stereo not drawn) | -10%
Cc1ccc(N(CC2=NCCN2)c2cccc(O)c2)cc1 | ?
CNCCCN1c2ccccc2CCc2ccccc21 | -9%&23%&-13%
CCNC(=O)NCCCOc1cccc(CN2CCCCC2)c1 | 14%
Oc1ccc2c(c1)OCC1(O)Cc3cc(O)c(O)cc3C21 (stereo not drawn) | 2%
CNC1C(O)C2OC3OC(C)CC(=O)[C@@]3(O)O[C@H]2[C@H](NC)C1O (stereo partly drawn) | -4%
Oc1ccc(C2CNCCc3c2cc(O)c(O)c3Cl)cc1 (stereo not drawn) | 4%&-21%
Cc1ccc(S(=O)(=O)NC(=O)NC2CCCCC2)cc1 | 1%

These rows are one share of the data. The share of hits here may be higher or lower than overall.
